Screens as filed in PubChem.
DUX4 inh = inhibitors of DUX4-driven ZSCAN4 reporter expression, primary screen, 293T cells, Gaussia and Italica luciferase; 293T-iDUX4 ZSCAN4-Gaussia luciferase reporter, 24 h; active compounds read low; activity change, negative = inhibition, % (concentration not given with the values); 0.8% of 37,000 active;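 active means -10% or lower and over 25 points stronger than a control reporter; inconclusive means -10% or lower with a smaller gap; inactive means above -10%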;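 further: 0% = median of neutral control wells and -100% = median of positive control wells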
DUX4 inh difference = also measured in DUX4 inh; calls as there; Gaussia minus Italica difference, %; measured here: selective DUX4 reporter inhibition;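 worked out from the two reporters; negative = selective loss of the DUX4 reporter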
DUX4 inh control = also measured in DUX4 inh; calls as there; activity change, negative = inhibition, %; measured here: Italica tet-on control reporter;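 0 = neutral control and -100 = positive control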
* = called active by the depositor; ? = inconclusive; . = not tested or not shown; & = joins results of further samples.

The opening 7 records, ahead of the listing:
No.	DUX4 inh	DUX4 inh difference	DUX4 inh control	SMILES
1	11	9	2.5	C[C@@H]1CN([C@H](C)CO)C(=O)c2ccccc2-c2ccccc2CO[C@@H]1CN(C)C(=O)Nc1ccccc1C(F)(F)F
2	1	-4	5.3	CO[C@H]1CN(C)C(=O)c2cc(NS(=O)(=O)c3ccccc3)ccc2OC[C@@H](C)N(Cc2cccnc2)C[C@@H]1C
3	-5	-9	3.5	O=C(NC[C@H]1N[C@H](CO)[C@@H]1c1ccccc1)C1CC1
4	-1	1	-2.0	O=C(CC(F)(F)F)N1C[C@@H]2[C@H](c3ccccc31)[C@H](CO)N2Cc1cccnc1
5	16	15	0.6	COc1ccc(NC(=O)N(C)C[C@@H]2OCc3ccccc3-c3ccccc3C(=O)N([C@H](C)CO)C[C@H]2C)cc1
6	-3	3	-6.0	CCC(=O)N1C[C@H](C)[C@@H](OC)CN(C)C(=O)c2ccc(NC(=O)CC(F)(F)F)cc2OC[C@@H]1C
7	1	1	0.1	Cc1noc(C)c1S(=O)(=O)N(C)C[C@@H]1OCCCC[C@@H](C)Oc2ccc(NS(=O)(=O)c3cccs3)cc2C(=O)N([C@H](C)CO)C[C@H]1C

All compounds of this part, previewed entries included:
No.	DUX4 inh	DUX4 inh difference	DUX4 inh control	SMILES
1	11	9	2.5	C[C@@H]1CN([C@H](C)CO)C(=O)c2ccccc2-c2ccccc2CO[C@@H]1CN(C)C(=O)Nc1ccccc1C(F)(F)F
2	1	-4	5.3	CO[C@H]1CN(C)C(=O)c2cc(NS(=O)(=O)c3ccccc3)ccc2OC[C@@H](C)N(Cc2cccnc2)C[C@@H]1C
3	-5	-9	3.5	O=C(NC[C@H]1N[C@H](CO)[C@@H]1c1ccccc1)C1CC1
4	-1	1	-2.0	O=C(CC(F)(F)F)N1C[C@@H]2[C@H](c3ccccc31)[C@H](CO)N2Cc1cccnc1
5	16	15	0.6	COc1ccc(NC(=O)N(C)C[C@@H]2OCc3ccccc3-c3ccccc3C(=O)N([C@H](C)CO)C[C@H]2C)cc1
6	-3	3	-6.0	CCC(=O)N1C[C@H](C)[C@@H](OC)CN(C)C(=O)c2ccc(NC(=O)CC(F)(F)F)cc2OC[C@@H]1C
7	1	1	0.1	Cc1noc(C)c1S(=O)(=O)N(C)C[C@@H]1OCCCC[C@@H](C)Oc2ccc(NS(=O)(=O)c3cccs3)cc2C(=O)N([C@H](C)CO)C[C@H]1C
8	8&10	1&-3	7.0&13	COc1cccc(-c2ccc(C3[C@H]4CNC[C@@H]3N4C(=O)Nc3ccc(F)cc3)cc2)c1 (stereo partly specified)
9	2	-2	3.3	COc1ccccc1NC(=O)N[C@@H]1CC[C@@H](CCn2cc(-c3cccnc3)nn2)O[C@H]1CO
10	4	2	1.5	C[C@H]1CN([C@@H](C)CO)C(=O)CCCn2cc(nn2)CO[C@H]1CN(C)Cc1ccc(C(=O)O)cc1
11	-3	0	-2.3	O=C(NCc1ccc2c(c1)OCO2)[C@@H]1[C@@H](CO)[C@@H]2Cn3c(cccc3=O)[C@H]1N2Cc1ccccc1
12	10	2	7.6	O=C(C1CCCC1)N1CC2(C1)[C@@H](c1ccccc1)[C@H](CO)N2C(=O)c1cccnc1
13	-2	-6	3.4	C[C@@H]1CN([C@@H](C)CO)C(=O)c2cc(N(C)C)ccc2O[C@@H](C)CCCCO[C@@H]1CN(C)C(=O)C1CCCCC1
14	8	3	4.9	COc1ccc(NC(=O)Nc2ccc3c(c2)[C@H]2C[C@@H](CC(=O)NC4CCCCC4)O[C@@H](CO)[C@H]2O3)cc1
15	13	-4	17	COc1ccc(-c2ccc([C@H]3[C@@H](CO)N4C(=O)CN(C(=O)Cc5ccccn5)C[C@@H]34)cc2)cc1
16	4	1	2.4	CO[C@H]1CN(C)C(=O)c2cc(NC(=O)c3cc(C)on3)ccc2OC[C@@H](C)N(C)C[C@@H]1C
17	-6	-4	-2.0	CN1C(=O)c2cc(NC(=O)Cc3cccs3)ccc2OC[C@@H]2O[C@@H](CC(=O)N[C@H]3CCN(Cc4ccccc4)C3)CC[C@H]21
18	5	6	-0.6	COc1ccc(NC(=O)N(C)C[C@H]2OCc3cnnn3CCCC(=O)N([C@H](C)CO)C[C@H]2C)c(OC)c1
19	15	4	11	CCS(=O)(=O)N1CCC2(CC1)CN[C@H](CO)c1c2c2ccc(OC)cc2n1C
20	4	2	1.9	CN(C)CC(=O)Nc1ccc2c(c1)[C@@H]1C[C@H](CC(=O)NCc3cccc(F)c3)O[C@@H](CO)[C@@H]1O2
21	1	-3	4.6	COc1ccc(CN(C)C[C@@H]2OCCCC[C@H](C)Oc3ccc(NC(=O)C4CCCCC4)cc3C(=O)N([C@H](C)CO)C[C@H]2C)cc1
22	-9	-7	-2.0	O=C1CN(S(=O)(=O)c2ccccc2)C[C@H]2[C@@H](c3ccc(C#CCc4ccccc4)cc3)[C@@H](CO)N12
23	0	1	-0.9	COc1ccc(NC(=O)N(C)C[C@@H]2OCc3cn(nn3)CCCC(=O)N([C@H](C)CO)C[C@@H]2C)c(OC)c1
24	6	6	-0.3	CN(C)C(=O)[C@H]1[C@H](CO)[C@H]2Cn3c(ccc(-c4ccccc4F)c3=O)[C@H]2N1C(=O)C1CC1
25	-10	-9	-1.0	O=C(C[C@@H]1CC[C@@H]2[C@H](COC[C@H](O)CN2Cc2ccc(F)cc2)O1)NCc1ccccc1Cl
26	0	0	0.3	C[C@H](CO)N1C[C@H](C)[C@@H](CN(C)C(=O)NC2CCCCC2)Oc2cc(/C=C/c3ccccc3)ccc2S1(=O)=O
27	-3	-2	-0.9	C[C@H](CO)N1C[C@H](C)[C@H](CN(C)Cc2ccc(-c3ccccc3)cc2)Oc2ccc(NS(=O)(=O)c3cccs3)cc2CC1=O
28	-4	2	-5.9	O=C(C[C@@H]1CC[C@H]2[C@@H](COC[C@@H](O)CN2Cc2ccc(C(F)(F)F)cc2)O1)NCCc1ccccc1
29	1	2	-0.7	CS(=O)(=O)Nc1ccc2c(c1)[C@@H]1C[C@H](CC(=O)NCC3CC3)O[C@H](CO)[C@@H]1O2
30	0	-3	2.7	O=C(C[C@@H]1CC[C@H]2[C@@H](COC[C@@H](O)CN2C(=O)Nc2ccc(F)cc2)O1)NCCCN1CCOCC1
31	2	3	-1.6	O=C(c1cccnc1)N1C[C@@H]2[C@H](c3ccccc31)[C@H](CO)N2C(=O)C1CCOCC1
32	5	2	2.6	C[C@@H]1CN([C@H](C)CO)C(=O)c2cc(C#Cc3ccccn3)cnc2O[C@H]1CN(C)Cc1cccnc1
33	-3	-1	-1.7	C[C@@H]1CCCCO[C@@H](CN(C)C(=O)Nc2cccc3ccccc23)[C@H](C)CN([C@@H](C)CO)C(=O)c2cc(NS(=O)(=O)c3cn(C)cn3)ccc2O1
34	?	.	.	CN(C)C(=O)c1cccc(-c2ccc3c(c2)[C@H]2[C@H](CCN2S(=O)(=O)c2ccccc2)[C@@H](CO)N3)c1
35	?	.	.	O=C(Nc1cccc(F)c1)N1CCCCN2[C@H](C1)[C@@H](c1ccc(C#CC3CC3)cc1)[C@@H]2CO
36	5	7	-2.5	COCC(=O)Nc1ccc2c(c1)C(=O)N(C)C[C@@H](OC)[C@H](C)CN(C(C)=O)[C@H](C)CO2
37	-2	-2	-0.6	CO[C@@H]1CN(C)C(=O)c2cc(NC(=O)NC(C)C)ccc2OC[C@H](C)N(CCC(F)(F)F)C[C@@H]1C
38	-5	-1	-4.0	CC(=O)N1[C@H](CO)[C@H]2c3ccccc3N(C(=O)c3ccccc3)C[C@H]21
39	2	2	-0.5	CC(C)NC(=O)Nc1ccc2c(c1)C(=O)N([C@H](C)CO)C[C@@H](C)[C@H](CN(C)C(=O)C1CCCCC1)OCCCC[C@@H](C)O2
40	5	0	4.5	COCC(=O)N1CC[C@@H]2[C@H]1c1cc(-c3ccc(F)cc3)ccc1N(C)[C@@H]2CO
41	-4	-4	0.4	CCCNC(=O)[C@@H]1[C@@H](CO)[C@@H]2Cn3c(ccc(-c4cccc(F)c4)c3=O)[C@@H]2N1C(=O)CC
42	2	-3	5.0	CCC(=O)Nc1ccc2c(c1)C(=O)N(C)C[C@@H](OC)[C@H](C)CN(Cc1ccc(-c3ccccn3)cc1)[C@H](C)CO2
43	-27*	-29*	2.2*	C/C=C/c1ccc([C@@H]2[C@@H](CO)N3CCCCN(C(=O)Nc4ccc(OC)cc4)C[C@@H]23)cc1
44	3	-7	10	CN(C)CC#Cc1ccc([C@@H]2[C@@H](CO)N3CCCCN(S(=O)(=O)c4ccccc4)C[C@@H]23)cc1
45	-4	-1	-3.5	COc1ccc(S(=O)(=O)N2C[C@@H](O)COC[C@H]3O[C@@H](CC(=O)N[C@@H]4CCN(Cc5ccccc5)C4)CC[C@@H]32)cc1
46	-4	-8	3.7	CN1C(=O)c2cc(NC(=O)c3cccs3)ccc2OC[C@H]2O[C@H](CC(=O)NCCN3CCCCC3)CC[C@@H]21
47	1	-3	4.7	C[C@@H]1CN([C@@H](C)CO)C(=O)c2ccccc2-c2ccccc2CO[C@H]1CN(C)S(=O)(=O)c1ccc(F)cc1
48	15	1	14	CCCC(=O)N1CCC2(CC1)CN[C@H](CO)c1c2c2ccc(OC)cc2n1C
49	16	11	5.0	COc1ccc2c3c(n(C)c2c1)[C@H](CO)N(CC1CCOCC1)CC31CN(CC2CCOCC2)C1
50	-4	-5	1.8	CCCC#Cc1ccc([C@@H]2[C@@H](CO)N3C(=O)CN(C(=O)c4ccccn4)C[C@H]23)cc1
51	2	-7	9.4	CC(=O)N1CC2(C1)[C@H](c1ccc(-c3ccc(F)cc3)cc1)[C@H](CO)N2CC1CC1
52	17	9	8.6	CCCNC(=O)N1CC2(C1)CN(C(=O)NC1CCCC1)[C@@H](CO)c1[nH]c3cc(OC)ccc3c12
53	1	-5	5.9	O=C(Nc1ccccc1F)N[C@H]1CC[C@H](CCNC(=O)C2CC2)O[C@H]1CO
54	25	13	12	COc1ccc2c3c([nH]c2c1)[C@H](CO)N(C)CC31CN(C(=O)c2cccnc2)C1
55	-1	1	-1.6	C[C@H]1CCCCO[C@@H](CN(C)C(=O)CCC(F)(F)F)[C@@H](C)CN([C@@H](C)CO)C(=O)c2cc(NC(=O)C3CCCCC3)ccc2O1
56	-1	-2	0.8	Cc1cccc(S(=O)(=O)N[C@@H]2CC[C@@H](CCNC(=O)Nc3cc(F)ccc3F)O[C@@H]2CO)c1
57	10	8	2.2	COCCNC(=O)C[C@H]1C[C@@H]2c3cc(NS(C)(=O)=O)ccc3O[C@@H]2[C@@H](CO)O1
58	0	-1	1.4	N#C[C@H]1[C@@H](c2ccc(C#Cc3cccc(F)c3)cc2)[C@@H](CO)N1C(=O)C1CCCC1
59	2	3	-1.6	Cc1noc(C)c1S(=O)(=O)Nc1ccc2c(c1)CC(=O)N([C@@H](C)CO)C[C@H](C)[C@@H](CN(C)Cc1ccc(Oc3ccccc3)cc1)O2
60	-4	0	-4.4	OC[C@@H]1[C@@H](c2ccc(C#Cc3ccccc3)cc2)[C@H]2CN(Cc3cncnc3)CCCCN12

Going on with the list.
No.	DUX4 inh	DUX4 inh difference	DUX4 inh control	SMILES
61	1	6	-4.7	OC[C@H]1[C@@H](c2ccc(C#Cc3ccccc3F)cc2)[C@@H]2CN(Cc3cncnc3)CCCCN12
62	0	0	0.0	Cc1cc(C(=O)Nc2ccc3c(c2)C(=O)N(C)[C@H]2CC[C@H](CC(=O)N[C@@H](C)c4ccccc4)O[C@H]2CO3)no1
63	?	.	.	N#Cc1cccc(-c2ccc3c(c2)[C@H]2[C@H](CCN2S(=O)(=O)c2ccc(F)cc2)[C@@H](CO)N3)c1
64	0	-2	1.4	CCS(=O)(=O)Nc1ccc2c(c1)C(=O)N(C)[C@H]1CC[C@@H](CC(=O)NCc3ccc(OC)cc3)O[C@H]1CO2
65	-3	-2	-1.5	CO[C@@H]1CC[C@@H]2CCOc3c(C#N)cccc3C(=O)N(C)C[C@@H](C)C(=O)N(C)C[C@@H]1O2
66	8	4	3.1	O=C(NC1CCC1)[C@@H]1[C@@H](CO)[C@@H]2Cn3c(ccc(-c4ccccc4)c3=O)[C@H]1N2CC1CC1
67	0	-3	2.6	CN1C(=O)c2cc(NC(=O)Nc3ccccc3Cl)ccc2OC[C@H]2O[C@@H](CC(=O)NCCCN3CCOCC3)CC[C@H]21
68	1	0	1.1	C[C@@H]1CN([C@H](C)CO)C(=O)c2cc(NC(=O)C3CCCCC3)ccc2O[C@@H](C)CCCCO[C@H]1CN(C)C(=O)CCC(F)(F)F
69	-1	0	-0.2	O=C(O)[C@@H]1[C@@H](CO)[C@@H]2Cn3c(ccc(C4=CCCCC4)c3=O)[C@@H]2N1C(=O)c1ccccc1F
70	0	1	-0.2	CCC(=O)N1[C@H](CN(C)C(C)=O)[C@@H](c2ccc(-c3ccccc3)cc2)[C@@H]1CO
71	3	0	2.5	CCN(C[C@@H]1N[C@@H](CO)[C@H]1c1ccc(C2=CCCC2)cc1)C(=O)c1ccncc1
72	14	23	-8.5	COc1cc(CN2CC3(CCN(S(=O)(=O)c4cn(C)cn4)CC3)c3c(n(C)c4cc(OC)ccc34)[C@H]2CO)cc(OC)c1
73	?	.	.	COCC(=O)Nc1ccc2c(c1)[C@@H]1C[C@H](CC(=O)NCc3ccc(-c4ccccc4)cc3)O[C@@H](CO)[C@@H]1O2

Compound profiles (already shown):
N#Cc1cccc(-c2ccc3c(c2)[C@H]2[C@H](CCN2S(=O)(=O)c2ccc(F)cc2)[C@@H](CO)N3)c1 is listed with DUX4 inh: ?; DUX4 inh difference: .; DUX4 inh control: .
CO[C@@H]1CC[C@@H]2CCOc3c(C#N)cccc3C(=O)N(C)C[C@@H](C)C(=O)N(C)C[C@@H]1O2 is listed with DUX4 inh: -3; DUX4 inh difference: -2; DUX4 inh control: -1.5

A portion of the library; the hit share may differ from the screen's.
